Compound activity as filed in PubChem.
CDC25B-CDK2 inh – primary biochemical HTRF screen for blockers of M-phase inducer phosphatase 2 binding to CDK2/cyclin A. HTRF CDC25B-CDK2/CyclinA binding, anti-His/anti-Flag; stronger effect = higher value. z-score (concentration not given with the values). 94,000 compounds, 0.72% hits;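 also: score is relative to mean and SD of negative controls; strong numbers were not always called active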
TAR Tat displ – TAR RNA-Tat peptide displacers, HIV-1, primary screen, biochemical, FRET, FAM/TAMRA-labeled Tat. HIV-1 TAR RNA, Tat peptide displacement FRET; stronger effect = higher value. z-score (test concentration not listed). 100,000 compounds, 0.6% hits;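 also: score is relative to mean and SD of negative controls; some compounds called inactive have numbers as strong as hits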
An asterisk follows results filed as active; nt = no result given.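 The calls were made as follows: active = z-score from 3 up in half or more of its runs; inactive = the rest.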

A first look (3 entries):
SMILES | CDC25B-CDK2 inh | TAR Tat displ
CC(C)(CC(=O)O)CC(=O)NCCN1CCNC1=O | -1.61 | nt
CCNS(=O)(=O)c1ccc2c(c1)NC(=O)CC(C)S2 (configuration not stated) | nt | 2.38
CN(C)S(=O)(=O)Oc1ccc(-c2noc(C3CCC3)n2)cc1 | -1.88 | nt

This part in full, repeating the preview:
SMILES | CDC25B-CDK2 inh | TAR Tat displ
CC(C)(CC(=O)O)CC(=O)NCCN1CCNC1=O | -1.61 | nt
CCNS(=O)(=O)c1ccc2c(c1)NC(=O)CC(C)S2 (configuration not stated) | nt | 2.38
CN(C)S(=O)(=O)Oc1ccc(-c2noc(C3CCC3)n2)cc1 | -1.88 | nt
CSC(=O)NC(=O)c1cccc(=O)o1 | -3.18 | nt
CCOC(=O)c1ccn(-c2nc(-c3ccco3)cc(C(F)(F)F)n2)n1 | -2.45 | 1.64
Cc1nnc2c(N3CCc4ccccc4C3)nc3ccccc3n12 | -2.87 | 0.71
c1ccc(N2CCN(CCNc3ncnc4nc[nH]c34)CC2)cc1 | 0.17 | 1.04
Cc1cc(C)cc(NC(=O)NCc2noc3ccccc23)c1 | nt | -0.6
Cc1ccc(CNc2ncc(-c3ccc(C)cc3)n2C)cc1 | 0.23 | -1.5
CC1CC(C)CN(c2csc3ccccc3c2=O)C1 (configuration not stated) | nt | 0.96
CSc1ccc(CNC(=O)CN2C(=O)C(C)=C(c3ccc(C)c(C)c3)S2(=O)=O)cc1 | nt | 0.03
CC1=C(c2ccccc2)S(=O)(=O)N=C1N1CCN(c2cccc(C)c2C)CC1 | -10.8 | 0.33
CN(C(=O)COCc1cc(-c2ccco2)on1)c1ccccc1 | nt | -0.45
Cc1cc2c3c([nH]c2cc1S(=O)(=O)Nc1ccc(F)c(Cl)c1)CCCC3=O | nt | 0.14
O=C(CSC1=NS(=O)(=O)c2ccccc2N1)N1CCCC1 | nt | 1.15
CN1C(=O)C(C)(C)c2cc(S(=O)(=O)N(C)CC3COc4ccccc4O3)ccc21 (configuration not stated) | nt | 0.83
CN(C(=O)Cn1cc(S(=O)(=O)N2CCCC2)c(S(=O)(=O)N2CCCC2)c1)C1CCCCC1 | nt | 1.82
COc1cc(NC(=O)N2CCN(c3cc(N(C)C)nc(C)n3)CC2)cc(OC)c1 | -1.61 | 0.4
O=C(CCCn1sc2ccccc2c1=O)N1CCN(Cc2ccc3c(c2)OCO3)CC1 | -1.64 | 0.93
CC(=C\c1ccc(Cl)cc1)/C(C)=N/O | -0.31 | nt
O=C(c1ccc2c(c1)nc1n2CCOC1)N1CCc2ccccc21 | nt | 0.69
CCn1nccc1C1CCCN1C(=O)Nc1ccsc1C(=O)OC (configuration not stated) | -0.21 | 0.81
CCOc1ccc(NS(=O)(=O)c2ccc(Cl)cc2)cc1 | -0.38 | 0.06
Cc1ccc(NC(=O)C2CC3CSCN3C23C(=O)Nc2ccccc23)c(C)c1 (configuration not stated) | nt | -1.77
FC(F)(F)c1ccnc(SCn2c(=S)sc3ccccc32)n1 | -0.32 | nt
Cc1cc2ncn(C(=O)N3CCOCC3)c2cc1C | -0.75 | -1.64
CC(C)CCN(Cc1ccco1)C(=O)Cn1c(=O)oc2ccccc21 | nt | 0.18
CC1=C(C(=O)OCCOc2ccccc2)C(c2ccccc2OC(C)C)C2=C(CCCC2=O)N1 (configuration not stated) | -1.6 | 1.19
CCOC(=O)C1CCCN(C(=O)Cn2ncc3ccsc3c2=O)C1 (configuration not stated) | -1.64 | 1.5
COc1ccc(Cn2c(SCc3ccc(F)cc3)nc3cccnc32)cc1 | nt | 2.76
COc1cc(OC)c(NC(=O)c2nn(C)c3c2COc2ccccc2-3)cc1Cl | -1.04 | 1.5
CC1(C)CC(=O)C2=C(C1)OC1=C(C(=O)CC(C)(C)C1)C2c1nc(-c2ccccc2)n2ccccc12 | -1.34 | nt
COCCCNc1nc2c(S(=O)(=O)c3ccccc3)nnn2c2ccsc12 | nt | 1.29
NC(=O)CSc1nc2nccnc2c(=O)n1Cc1cccs1 | nt | 1.35
CCN(CC)C(=O)c1cc2ccc3cccnc3c2[nH]1 | nt | 2.63
COc1cccc(-n2c(C)cc(CN)c2C)c1 | 1.42 | -1.37
CN(C)CCN(C(=O)c1ccc(F)cc1)c1nc2c(F)cc(F)cc2s1 | nt | 0.39
O=C(c1ccc(N2CCCS2(=O)=O)cc1)N1CCN(C(c2ccccc2)c2ccccc2)CC1 | 0.56 | 1.71
O=C(c1ccccc1Cl)N1CCSCC1 | -1.61 | nt
CCOC(=O)c1c(CSc2ccccc2)oc2ccc(O)c(CN(C)C)c12 | -0.39 | 3.27

3 entries already listed, sorted by molecular weight, high to low:
SMILES | CDC25B-CDK2 inh | TAR Tat displ
COc1cc(OC)c(NC(=O)c2nn(C)c3c2COc2ccccc2-3)cc1Cl | -1.04 | 1.5
CC(C)CCN(Cc1ccco1)C(=O)Cn1c(=O)oc2ccccc21 | nt | 0.18
O=C(c1ccccc1Cl)N1CCSCC1 | -1.61 | nt

Later entries.
SMILES | CDC25B-CDK2 inh | TAR Tat displ
O=S(=O)(c1ccc(Cl)s1)N1CCN(c2ccccc2)CC1 | -1.67 | nt
O=C1N(Cc2c(F)cccc2Cl)c2ccccc2S(=O)(=O)N1Cc1ccc(F)cc1 | nt | 0.15
O=C(NCc1ccc2[nH]c3c(c2c1)CCCC3)N1CCOCC1 | -0.07 | -0.05
CCCNC(=O)CSCc1nc2cccnc2n1C1CCCCC1 | nt | -3.48
CSCCC(NS(=O)(=O)c1cccs1)C(=O)Nc1ccc(F)cc1 (configuration not stated) | -2.15 | nt
CN1CCN(c2ccc(NS(=O)(=O)c3cccc(C(F)(F)F)c3)cc2)CC1 | -0.21 | nt
Cc1ccc(C2CC(=O)c3cnc(N4CCc5ccccc5C4)nc3C2)cc1 (configuration not stated) | -0.77 | 0.18
CCOCCc1nn2c(=O)cc(COC(=O)c3ccc(OCC)cc3)nc2s1 | nt | 1.15
COc1ccc(NS(=O)(=O)c2ccc3[nH]c4c(c3c2)CCCCC4)cc1 | nt | -0.28
Cc1nc2nc(NCc3cccs3)[nH]n2c(=O)c1CCC(=O)N1CCCCC1 | -0.89 | -0.79
CC1CCCCC1NC(=O)CSc1ccsc1[N+](=O)[O-] (configuration not stated) | -2.01 | -0.68
O=S(=O)(c1ccc(Cl)cc1)c1nnn2c1nc(NCc1cccs1)c1sccc12 | nt | 1.09
COC(=O)/C=C1\SC(=Nc2ccc(Cl)cc2)N(c2ccc(Cl)cc2)C1=O | -1.21 | nt
CC1(C)CC(=O)C2=C(C1)c1c(ccc3ccccc13)NC2c1ccc(OCC(=O)O)cc1 (configuration not stated) | -2.17 | 1.32
Cc1ccc(-c2cn(-c3ccccc3F)c(=S)[nH]2)cc1 | -1.21 | nt
O=C(Cn1cc(S(=O)(=O)c2ccc(F)cc2)c(=O)c2cc3c(cc21)OCO3)Nc1ccccc1 | -1.75 | nt
O=c1ccc(-c2ccc(Br)s2)n[nH]1 | -0.81 | nt
COc1cccc(Nc2nnc(Cc3cccnc3)c3ccccc23)c1 | 0.68 | 1.36
O=C(c1cccn1-c1nnc(N2CCCC2)s1)N1CCN(c2cccc(Cl)c2)CC1 | nt | 0.1
COc1ccc(OC)c(NC(=O)N2CCN(S(=O)(=O)c3ccc4c(ccn4C)c3)CC2)c1 | nt | -0.24
CC(C)c1ccc(NS(=O)(=O)c2cc3c4c(c2)CC(=O)N4CCC3)cc1 | nt | 2.16
O=C(Nc1ccc(Cl)cn1)Nc1ccccc1Cl | -0.17 | nt
O=C(Nc1cc(Br)ccc1O)C1CC(c2ccc(F)cc2)=NO1 (configuration not stated) | -0.38 | 0.27
c1ccc(CCNc2nc3ccccc3n3nnnc23)cc1 | -2.89 | -3.85
CC(=O)Nc1ccc(C(=O)CSc2nc3nc[nH]c3c(=O)[nH]2)cc1 | -2.17 | 1.53
CCOC(=O)c1ccc2oc(=O)n(CC)c2c1 | nt | 1.94
Cn1c(COC(=O)c2sc3ccccc3c2Cl)nc2ccccc21 | 2.35 | -0.27
CN(C)CCNS(=O)(=O)c1ccc2c(c1)CCCC(=O)N2 | nt | 1.06
Cc1ccc(Cl)cc1NC(=O)N1CCn2cccc2C1C(C)C (configuration not stated) | nt | -0.23
CC(=O)N1N=C(c2cc(-c3ccc(F)cc3)n[nH]2)OC1c1cccc2ccccc12 (configuration not stated) | nt | -1.37
CCc1nn(CC(=O)NCCC2=CCCCC2)c(=O)c2cc3cc(F)ccc3n12 | 2.55 | 0.67
CC(C)(C)NC(=O)CSc1nc(-c2ccco2)nc2cc(=O)[nH]n12 | nt | 1.9
Cc1nc2ccc(Br)cc2c(=O)n1-c1cc(C(F)(F)F)ccc1N1CCOCC1 | -1.57 | nt
O=C(Nc1nnc2n1CCCS2)c1ccc(F)c(F)c1 | nt | 0.52
CCC(Cn1nnc2ccccc2c1=O)NC(=O)Nc1cccc(Cl)c1 (configuration not stated) | 0.71 | 1.56
Fc1ccccc1N1CCN(CCCNc2nn3nnnc3c3ccccc23)CC1 | nt | -0.16
CN(CC(=O)NC1CCCc2ccccc21)S(=O)(=O)c1ccc2c(c1)C(=O)NCC(=O)N2 (configuration not stated) | nt | 0.69
O=C(CCc1nnc2ccc(N3CCCC3)nn12)Nc1cccc(F)c1 | nt | 0.63
O=C(O)CCn1c(O)c(C2=c3cc([N+](=O)[O-])ccc3=NC2=O)sc1=S | -4.19 | nt
COc1ccccc1-n1c(=O)c2c3c(sc2n2c(=S)[nH]nc12)CCC3 | -3.54 | nt
COc1cccc(S(=O)(=O)c2c[nH]c3ccc(F)cc3c2=O)c1 | -0.28 | -1.46
Cc1noc(C)c1CCNc1ncnc2onc(-c3ccc(Cl)cc3)c12 | nt | 1.84
Cc1nc2c(c(N3CCc4ccccc4C3)n1)CCC2 | -0.42 | 0.7
CC(NC(=O)c1cc2n(n1)CC(C)(C(=O)NC1CCCC1)N(C)C2=O)c1ccc2c(c1)OCCO2 (configuration not stated) | nt | 0.88
CCOC(=O)c1cc(S(=O)(=O)Nc2c(C)cc(C)cc2C)[nH]n1 | nt | 1.29
Cc1cccc(-c2nc3scc(CCNS(=O)(=O)c4ccccc4)n3n2)c1 | nt | 1.06
COc1ccc(Cl)cc1NC(=O)c1cc2c(=O)n3ccccc3nc2n1C | nt | 1.7
COc1ccc(S(=O)(=O)Nc2cccc(-c3cn4ccccc4n3)c2)cc1 | -0.1 | nt
COc1ccc2oc3ccccc3c(=O)c2c1 | nt | 2.15
COc1cccc(NC(=O)C(C)SC2=Nc3ccccc3C3=NC(C(C)C)C(=O)N23)c1 (configuration not stated) | nt | 0.19
CCOC(=O)N1CCN(C(=O)C2=C(C)C(=O)OC23CCCCC3)CC1 | -1.31 | -1.44
COc1ccc(C2=NN3C(C2)c2cc(OC)ccc2OC3c2cccnc2)cc1 (configuration not stated) | -0.39 | 0.64
CC1CCC(C(C)C)C(NC(=O)c2ccco2)C1 (configuration not stated) | -1.42 | nt
N#Cc1ccc(S(=O)(=O)Oc2ccc(Cl)cc2Cl)cc1 | -0.06 | nt
CN1C(=O)C(C)(C)c2cc(S(=O)(=O)Nc3ccc4c(c3)OCO4)ccc21 | nt | 2.43
COc1cc(OC)cc(-c2nc(-c3ccccc3)c3ccccn23)c1 | -0.67 | -0.7
Cc1ccc2oc3c(c(=O)c2c1)C(c1ccccc1F)N(CCCN(C)C)C3=O (configuration not stated) | -1.03 | -0.19
CC1(C)Cc2nc3oc4c(NCCCN5CCOCC5)ncnc4c3cc2CO1 | nt | -0.94
C=CCn1c(=S)sc2c(N3CCN(c4ccccc4)CC3)ncnc21 | -1.61 | nt
Cc1cc(S(=O)(=O)N2CCCC(C(=O)O)C2)ccc1Cl (configuration not stated) | -2.58 | 2.71

Part of the list above, set out differently.
Compound	CDC25B-CDK2 inh	TAR Tat displ
CCOC(=O)c1cc(S(=O)(=O)Nc2c(C)cc(C)cc2C)[nH]n1	nt	1.29
Cc1cccc(-c2nc3scc(CCNS(=O)(=O)c4ccccc4)n3n2)c1	nt	1.06
COc1ccc(Cl)cc1NC(=O)c1cc2c(=O)n3ccccc3nc2n1C	nt	1.7
COc1ccc(S(=O)(=O)Nc2cccc(-c3cn4ccccc4n3)c2)cc1	-0.1	nt

Later entries:
SMILES | CDC25B-CDK2 inh | TAR Tat displ
CC(Nc1nc(N2CCN(CCO)CC2)nc2ccccc12)c1ccccc1 (configuration not stated) | -0.92 | 1.18
CCS(=O)(=O)N1CCN(c2c(C)n(-c3ccccc3)c(=O)n(C)c2=O)CC1 | nt | 0.78
Cc1cc(OC(C)C)nc(N)n1 | -2.51 | nt
CCOC(=O)Cc1nnc2c(Nc3ccccc3F)nc3nonc3n12 | 1.92 | 0.41
O=C1c2nccnc2C(=O)N1c1cc(F)ccc1F | -1.78 | -0.41
COc1ccc(Sc2nn3nnnc3c3ccccc23)cc1 | -7.92 | -0.41
C=CCn1c(SCC(=O)NCCN2CCOCC2)nc2sc(C)c(C)c2c1=O | -1.31 | nt
CCC(CC)C(=O)Nc1ccc2nc(SCC(=O)Nc3nccs3)sc2c1 | -0.54 | 0.5
COc1ccc(Oc2c(C)oc3cc(OC(=O)N4CCOCC4)ccc3c2=O)cc1 | -1.58 | 0.95
CCOC(=O)c1nn(-c2ccccc2)c(=O)cc1NC(C)CC (configuration not stated) | nt | 1.93
O=C1C2ON(c3ccccc3)C(c3ccncc3)C2C(=O)N1c1cccc(Cl)c1 (configuration not stated) | -0.7 | -0.88
CC1(C)CC(=O)C2=C(C1)Nc1ccccc1N(C(=O)c1ccccc1)C2c1ccc(C#N)cc1 (configuration not stated) | -1.79 | nt
C=CCSc1ncc(Cl)c(C(=O)Nc2nnc(SCC=C)s2)n1 | -1.59 | 0.52
O=C(NCCC1=CCCCC1)C1CCN(C(=O)c2cc3ccsc3[nH]2)CC1 | nt | 1.23
Oc1ccccc1-c1nc2c3c4c(sc3ncn2n1)CCCCC4 | -1.2 | 1.27
COc1ccc(Cl)cc1-n1c(N)c(C(N)=O)sc1=S | nt | 2.07
Cc1ccc(-c2ncc(C#N)c(=O)[nH]2)cc1 | -0.13 | -0.52
